VDR inh – vitamin D3 receptor (human) inhibition | 0.93% of 400,000 active | Potency, µM, without a hit: max response, negative = inhibition, hits mostly inhibitors | AID 504847 | VDR-SRC2-3 peptide fluorescence polarization, 2 h | P11473; active = well fitted inhibition curve with a large enough effect; inconclusive = small, poorly fitted or top-dose-only effect, or another doubt; inactive = no such curve, though single readings can be large or run the other way; also: series mostly up to about 120 µM
Target sequence (P11473 whole entry, looked up): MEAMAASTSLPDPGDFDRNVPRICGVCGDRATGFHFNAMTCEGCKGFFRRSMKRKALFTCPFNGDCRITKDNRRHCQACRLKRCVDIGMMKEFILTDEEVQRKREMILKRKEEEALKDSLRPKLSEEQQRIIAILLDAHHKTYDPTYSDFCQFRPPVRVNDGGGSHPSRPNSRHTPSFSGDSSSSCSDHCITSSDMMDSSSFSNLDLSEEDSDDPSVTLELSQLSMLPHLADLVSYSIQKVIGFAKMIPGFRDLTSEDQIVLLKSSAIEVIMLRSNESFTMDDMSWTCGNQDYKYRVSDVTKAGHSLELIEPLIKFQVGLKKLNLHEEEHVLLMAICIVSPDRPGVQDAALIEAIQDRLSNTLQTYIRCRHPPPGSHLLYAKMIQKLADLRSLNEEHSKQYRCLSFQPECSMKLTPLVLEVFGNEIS
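The screen uses fluorescence polarization to detect compounds that interfere with recruitment of the SRC2-3 coactivator peptide to VDR; plates are read after 2 h at room temperature.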
Numbers without * were called inactive; ? = inconclusive; & = joins results of further samples. % is scaled to controls: 0 for no effect and ±100 for the full control effect; potency is read from the fitted curve at half-maximal effect.

SMILES	VDR inh
Cc1ccc(OCc2nc(C#N)c(N3CCN(Cc4ccccc4)CC3)o2)cc1	9%
CCN(Cc1ccccc1)C(c1cc2ccc(C)cc2[nH]c1=O)c1nnnn1CCOC (centres undefined)	-17%
Cc1ccc([C@@H]2CC=C(C(=O)O)[C@H](c3ccccc3F)N2S(=O)(=O)c2ccccc2C)cc1	5%
COc1ccc(S(=O)(=O)c2c(O)c3ccc(C(=O)Nc4ccccc4Cl)cc3[nH]c2=O)cc1	-8%
CC(C)(C)c1ccc(CCC2OCC(CN3CCOCC3)O2)cc1 (centres undefined)	3%
Cc1ccc(CN(C(=O)Nc2cccc(Cl)c2)c2ccccn2)cc1	0%
Cc1ccc(CCNC(=O)c2cc(-c3ccncc3)nc3ccccc23)cc1	6%
CCCN(CC(=O)Nc1ccc(Cl)cc1Cl)Cc1cc(=O)n2ccsc2n1	-28%
O=C(CCSc1nnc(-c2ccco2)o1)Nc1ccccc1	-1%
Cc1cccn2cc(-c3ccc(F)cc3)cc12	11%
CCOc1ccc(C(=O)c2oc3ccccc3c2NC(=O)Cc2coc3cc(C)cc(C)c23)cc1	2%
COc1ccc(NC(=O)CSCC(=O)NC2(C)CCS(=O)(=O)C2)cc1 (centres undefined)	16%
CCn1nc(NS(=O)(=O)c2ccccc2[N+](=O)[O-])c2cc3cccc(C)c3nc21	-2%
CCC(Sc1nc(N)cc(=O)[nH]1)C(=O)NC(C(=O)OC)c1ccccc1 (centres undefined)	?
Cc1c(C(=O)Nc2cccc(C(F)(F)F)c2)oc2ccc(S(=O)(=O)N3CCC4(CC3)OCCO4)cc12	0%
CC(=O)Nc1ccc(S(=O)(=O)NC(C)C(=O)NCCc2ccc(F)cc2)cc1 (centres undefined)	4%
COc1ccc2[nH]cc(CCNC(=O)CS(=O)(=O)Cc3ccccc3)c2c1	12%
C=CCN(CC=C)C(=O)c1ccc(OC2CCN(C(C)=O)CC2)c(OC)c1	-12%
O=C(CN1C(=O)NC2(CCOc3ccccc32)C1=O)Nc1ccc(F)c(F)c1F (centres undefined)	-11%
CC(C)NC(=O)[C@]1(C)CCC[C@@]2(C)C3CC[C@@]4(C)C[C@]3(CCC21)CC4=O (some centres undefined)	?
C/C(=N\NC(=O)CSCc1ccc([N+](=O)[O-])cc1)c1cccc(Br)c1	-18%
NCC[C@H](O)C(=O)N[C@@H]1C[C@H](N)[C@@H](O[C@H]2O[C@H](CN)CC[C@H]2N)[C@H](O)[C@H]1O[C@H]1O[C@H](CO)[C@@H](O)[C@H](N)[C@H]1O	3%
Cc1cc(C)cc(N(CC(=O)NC2CC3CCC2C3)S(C)(=O)=O)c1 (centres undefined)	-19%
CSc1nc(O)c(C(c2ccc(OC(C)C)cc2)c2c(O)nc(SC)[nH]c2=O)c(=O)[nH]1	22µM*
Fc1cccc(F)c1-n1c(CN2CCCC2)csc1=S	2%
Cn1nc(C(=O)NNC(=O)c2ccc(Cl)c(S(N)(=O)=O)c2)c2ccccc2c1=O	16%
C=C(C)CN(CC)c1nc(N)c(C#N)c(CC#N)c1C#N	5%
COc1ccc(CN(C(=O)c2ccco2)C2CC(C)N(C)CC2C)cc1 (centres undefined)	0%
Cc1cccc(S(=O)(=O)N2CN(Cc3ccco3)c3nc4ccccc4nc32)c1	3%
Cc1nn(-c2ccccc2)c2c1N(CCCC(=O)NCc1ccc(N(C)C)cc1)C(=O)CS2	23%
COCc1nnc(NC(=O)c2cc(Cl)ccc2OC)s1	18%
CC(C)c1nnc(NC(=O)CCC(=O)NC2CCCCCCC2)s1	0%
CC(C)N(C(=O)COC(=O)c1ccc(O)cc1)C(C)C	8%
COc1ccc(OC)c(S(=O)(=O)Nc2cc(Cl)cc(Cl)c2)c1	5%
Cc1ccccc1OCC(=O)Nc1nnc(C2CCCC2)s1	-2%
COc1cccc(-c2cc(C(F)(F)F)n3nc(C)c(-c4ccccc4)c3n2)c1	-4%
N#CCc1c(C#N)c(N)nc(N2CCOCC2)c1C#N	?
CC1CCCCC1NC(=O)CC1Oc2ccccc2NC1=O (centres undefined)	-15%
CCOCC(=O)Nc1nnc(SCCOC)s1	3%
CCc1ccc2oc(-c3cc(N)ccc3Cl)nc2c1	3%
Cc1c(Cl)cccc1NC(=O)c1cnc2sc(N3CCCC3)nn2c1=O	8%
COc1ccc(C(=O)O/N=C(/c2ccccc2)c2ccncc2)cc1	?
Cc1ccc(CNC(=O)C2CCC(=O)N(CCc3cccc(F)c3)C2)s1 (centres undefined)	-8%
COc1ccc(CN2CCOCCOCCOCC2)cc1	0%
CC(C)N(C(=O)Cn1c(SCC(=O)NC2CC2)nc2ccccc21)C(C)C	-5%

An excerpt of these results, field by field.
> CCCN(CC(=O)Nc1ccc(Cl)cc1Cl)Cc1cc(=O)n2ccsc2n1
  VDR inh = -28%

> O=C(CCSc1nnc(-c2ccco2)o1)Nc1ccccc1
  VDR inh = -1%

(further entries)
SMILES	VDR inh
COc1ccc(Nc2cc(C(=O)NCc3ccccc3)c3ccccc3n2)cc1	-15%
COC(=O)NNC(=S)NCc1ccc(C)cc1	4%
O=C1CCN(Cc2ccccc2)CCN1[C@H](CO)c1ccccc1	-19%
CCc1nc2oc3ccccc3c(=O)c2c(=O)n1Cc1ccccc1	-16%
CC(=O)Nc1cccc(/C(C)=N/N2C(C)CCCC2C)c1 (centres undefined)	5%
CCOC(=O)CNC(=O)N1CCCC(C(=O)c2cc(C)c(OC)c(C)c2)C1 (centres undefined)	-8%
CSc1cccc(CN2CCCC(CNC(=O)c3ccco3)C2)c1 (centres undefined)	0%
CCC1C(=O)C(C)(C)C(=O)OC1c1ccc([N+](=O)[O-])cc1 (centres undefined)	-3%
Cc1nnsc1C(=O)NNC(=O)c1ccc(C(F)(F)F)cc1	-5%
COc1cc2c(c(OC)c1OC)-c1ccc(OC)c(=O)cc1C(NC(=O)c1ccccc1)CC2 (centres undefined)	-14%
CC(C)(C)NC(=O)CN(C(=O)CCN1CCCc2ccccc21)C(C)(C)C	8%
COc1cccc(C(C(=O)NCc2ccccc2)N(C(=O)Cn2nnc3ccccc32)c2cccc(C(C)=O)c2)c1 (centres undefined)	7%
O=C1C(=O)N(CCN2CCOCC2)C(c2ccc(Cl)cc2)/C1=C(/O)c1ccc(S(=O)(=O)N2CCOCC2)cc1 (centres undefined)	-18%
CCc1noc(C)c1C(=O)Nc1ccccc1C(C)(C)C	10%
Cc1ccc(C)c(NC(=O)c2ccc[n+](Cc3ccc([N+](=O)[O-])cc3)c2)c1	4%
COc1ccc(-c2nnc(SCC(=O)N3CCc4ccccc43)o2)cc1OC	-13%
O=C(NCCCO)C(=O)Nc1ccc2c(c1)N(S(=O)(=O)c1cccs1)CCC2	0%
N/C(Cc1ccc(Cl)cc1Cl)=N\OC(=O)Cc1cccs1	11%
CCN(CC(=O)N1CCN(Cc2ccccc2)CC1)S(=O)(=O)c1ccc(C)cc1	9%
O=c1cnc2cnc(Nc3ccccc3)nc2n1C1CC1	-9%
CC(C)[C@@H](C(=O)NCC1CCCO1)N1C(=O)N2CCc3c([nH]c4ccccc34)[C@@]2(C)C1=O (some centres undefined)	7%
Brc1ccccc1-n1nnc(-c2cccnc2)n1	-4%
Cc1ccc(N2C(=O)[C@@H]3C(C(=O)CN4C(=O)c5ccccc5C4=O)=NN[C@@H]3C2=O)c(C)c1	6%
O=C(CSCc1ccccc1Br)NC1CC1	-5%
CCc1cc2c3c([nH]c2cc1S(=O)(=O)N1CCC2(CC1)OCCO2)CCCC3=O	17%
CCOc1cc(C(=O)N2CCCC2)cc(OCC)c1OCC	-15%
CCCCCCCCCC[n+]1cccc(C(=O)N(CC)CC)c1	-5%
O=C(Nc1ccc(N2CCCC2)c(S(=O)(=O)Nc2cccc(C(F)(F)F)c2)c1)c1cccs1	-20%
CC(NCc1ccc2c(c1)OCO2)C(=O)N1CCc2ccccc21 (centres undefined)	-3%
CC(C)c1nc(Cl)c(C#N)c2c1CSC(C)(C)C2	-3%
CC(OC(=O)CNC(=O)COc1ccccc1)C(=O)N(C)Cc1ccccc1 (centres undefined)	-16%
O=C1CC(N2CCCCCC2)C(=O)N1c1ccc2c(c1)OCO2 (centres undefined)	6%
CCOc1ccc(CCNC(=O)CCc2c(C)nc3c(c(C)nn3-c3ccccc3)c2C)cc1OCC	4%
CC(C)CC(NC(=O)C1CCCCC1)C(=O)Nc1cccc(C(F)(F)F)c1 (centres undefined)	-13%
NS(=O)(=O)c1ccc(NC(=O)CSc2nc3ccccc3n2-c2ccccc2)cc1	-22%
O=C(CN1C(=O)C2CCCCC2C1=O)OCc1nnc(-c2ccccc2)o1 (centres undefined)	3%
O=C(Nc1ccccc1N1CCOCC1)C1CCN(S(=O)(=O)c2ccccc2F)CC1	-16%
O=C(Nc1cccc(C(F)(F)F)c1)C1CCCN1S(=O)(=O)c1cccc2nsnc12 (centres undefined)	7%
Cc1nn(S(=O)(=O)c2ccc(F)cc2)c(C)c1S(=O)(=O)N1CCCCC1	-5%&20%
COc1cc(C2c3c(-c4ccccc4O)n[nH]c3C(=O)N2Cc2ccco2)ccc1OCC(C)C (centres undefined)	9%
Nc1ccc(OCc2ccccc2)cc1[N+](=O)[O-]	3%
O=C(Cn1c(C(F)(F)F)nc2ccccc21)NCCCN1CCOCC1	0%
O=C(Nc1ccc(Br)cn1)c1coc(=O)c(Br)c1	13%
CCC(=O)N1CCc2cc(Br)cc(S(=O)(=O)CCC(=O)NCc3ccccc3)c21	-14%
COCCN(C(=S)Nc1ccccc1C)C(C)c1ccco1 (centres undefined)	-4%
CN(Cc1c(F)cccc1Cl)C(=O)CNC(=O)c1ccc2c(c1)OCO2	-9%
CCN=c1scc(-c2ccccc2)n1/N=C/c1ccccn1	-5%
c1ccc(CN2CCN(CCOCCOc3ccc4c(c3)CCC4)CC2)cc1	-14%
CCOC(=O)C(C)Oc1cccc2c(=O)n(CC(=O)NCCc3ccc(OC)c(OC)c3)ccc12 (centres undefined)	-17%
CCN1CCN(CC(=O)N2N=C(c3ccc(OC)cc3)CC2c2ccc(OC)cc2)C(=O)C1=O (centres undefined)	4%
N=C(N)SCCN=C(N)N	1%
COc1ccc(C2CC(=O)C(CS(=O)(=O)c3ccccc3)C(=O)C2)cc1 (centres undefined)	?
COc1cc(CCC(=O)OCC(=O)NC2CCCC(C)C2C)cc(OC)c1OC (centres undefined)	-10%
Brc1ccc(OCCCCCN2CCOCC2)cc1	-10%
Cc1c2cnn(-c3ccccc3)c(=O)c2c(C)n1CC(=O)N1CCN(c2cccc(Cl)c2)CC1	11%
CCOc1ccc(CCNC(=O)COC(=O)c2cccnc2SC)cc1OCC	-5%
COC(=O)c1ccccc1NC(=O)CSc1[nH]c(=O)cc(C)c1C#N	1%
CC(c1ccccc1)C1NC(C(=O)O)CS1 (centres undefined)	-3%
Cn1c(=O)c2c(nc(N3CCOCC3)n2C/C=C/c2ccccc2)n(C)c1=O	-11%
COC(=O)N1CCC[C@@]2(CCN(Cc3cc(C(F)(F)F)cc(C(F)(F)F)c3)C2)C1	6%

Carrying on:
SMILES	VDR inh
O=C(NCc1ccccc1)c1ccc2nc(CCc3ccccc3)oc2c1	-2%
O=C(COC(=O)c1ccc(Cl)nc1)Nc1cc(S(=O)(=O)N2CCOCC2)ccc1Cl	3%
CC1CCN(Cc2nnnn2CCCC(=O)NCCN2CCOCC2)CC1	0%
COc1ccc(COn2nnc3ccc(S(=O)(=O)N4CCOCC4)cc32)cc1F	6%
CCCCCC(=O)O[C@H](CC(=O)O)C[N+](C)(C)C	5%
CC(C)C1N(C(=O)CN2CCCCC2)CCN1S(=O)(=O)c1ccccc1 (centres undefined)	13%
CCOc1ccc(C(C)NC(=O)C2CCCC2)cc1 (centres undefined)	0%
COc1ccccc1Cn1ccn(Cc2ccc(C)cc2)c(=O)c1=O	-2%
CC(C)n1c(C(O)c2ccc3c(c2)OCO3)nc2ccccc21 (centres undefined)	-7%
COc1c2c(nc3occc13)C(CC=C(C)C)(OC)C(=O)C=C2 (centres undefined)	-11%&-6%
COc1cccc(CC(=O)NCc2ccc3c(c2)CCN3C(C)=O)c1	0%
O=C(c1cccc(Cl)c1)N1CCN(c2ncccn2)CC1	23%
O=C(CCCn1nnnc1CN1CCOCC1)N1CCC(c2ccccc2Cl)C1 (centres undefined)	-3%

Of the compounds above, these have a Cl atom.
SMILES	VDR inh
COc1ccc(S(=O)(=O)c2c(O)c3ccc(C(=O)Nc4ccccc4Cl)cc3[nH]c2=O)cc1	-8%
Cc1ccc(CN(C(=O)Nc2cccc(Cl)c2)c2ccccn2)cc1	0%
CCCN(CC(=O)Nc1ccc(Cl)cc1Cl)Cc1cc(=O)n2ccsc2n1	-28%
Cn1nc(C(=O)NNC(=O)c2ccc(Cl)c(S(N)(=O)=O)c2)c2ccccc2c1=O	16%
COCc1nnc(NC(=O)c2cc(Cl)ccc2OC)s1	18%
COc1ccc(OC)c(S(=O)(=O)Nc2cc(Cl)cc(Cl)c2)c1	5%
CCc1ccc2oc(-c3cc(N)ccc3Cl)nc2c1	3%
Cc1c(Cl)cccc1NC(=O)c1cnc2sc(N3CCCC3)nn2c1=O	8%
O=C1C(=O)N(CCN2CCOCC2)C(c2ccc(Cl)cc2)/C1=C(/O)c1ccc(S(=O)(=O)N2CCOCC2)cc1 (centres undefined)	-18%
N/C(Cc1ccc(Cl)cc1Cl)=N\OC(=O)Cc1cccs1	11%
CC(C)c1nc(Cl)c(C#N)c2c1CSC(C)(C)C2	-3%
CN(Cc1c(F)cccc1Cl)C(=O)CNC(=O)c1ccc2c(c1)OCO2	-9%
Cc1c2cnn(-c3ccccc3)c(=O)c2c(C)n1CC(=O)N1CCN(c2cccc(Cl)c2)CC1	11%
O=C(COC(=O)c1ccc(Cl)nc1)Nc1cc(S(=O)(=O)N2CCOCC2)ccc1Cl	3%
O=C(c1cccc(Cl)c1)N1CCN(c2ncccn2)CC1	23%
O=C(CCCn1nnnc1CN1CCOCC1)N1CCC(c2ccccc2Cl)C1 (centres undefined)	-3%

Screening data as filed in PubChem.

The list is partial (hit frequency here may not be typical).
